# Bioassay records: PubChem, National Center for Advancing Translational Sciences (NCATS)
# Rango release inh: inhibitors of RanGTP-induced Rango-importin beta complex dissociation; actives 0.071% (n = 340,000); Potency, µM (doses to about 46.1 µM), inactives show top-dose activity change, negative = inhibition; O95149+P62826; Biochemical FRET Rango-importin beta, RanGTP-induced dissociation; AID 540253; active means falling FRET ratio curve, often poorly fitted, with flat reads before Ran was added; inconclusive means other falling curves, or compound fluorescence or quenching; inactive means flat or rising ratio curve;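 also: potency is read from the fitted curve at half-maximal effect; % of control where 0% means no effect; nearly all actives have a fitted effect of over 45% in size; -100% = wells without RanGTP and RCC1; the record marks most hits as doubtful in a second field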
#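 Rango/importin beta premix (0.1/0.25 uM final), PBS + 1 mM DTT + 0.02% Tween-20 + 0.1% BSA; cpd 5 min RT; FRET pre-read; + RanGTP-RCC1 (0.6 uM Ran, 2 mM GTP, 0.2 uM RCC1); 45 min RT; FRET post-read, ex 430, em 486/530 nm.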
# Rango-impB inh: Rango-importin beta binding inhibition; Q14974; Rango CFP/YFP FRET sensor + importin beta, 45 min; Potency, µM (titrated, usually from 92.2 µM), for inactives: at the top dose inhibition of complex formation; actives 0.031% (n = 340,000); AID 540263; active = rising FRET ratio curve, often small or poorly fitted; inconclusive = mostly compound fluorescence or quenching in the first reads; inactive = flat curves in all reads;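 also: potency is read from the fitted curve at half-maximal effect; 0% = DMSO wells and 100% = buffer wells lacking importin beta; nearly all actives have a fitted effect of over 15% in size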
#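 Inhibition scored from the CFP 486 nm/YFP 530 nm FRET ratio 45 min after adding 0.125 microM importin beta to 50 nM Rango biosensor preincubated 5 min with compound (room temperature, PBS with DTT, Tween-20, BSA). No-importin wells as positive control.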
# miR-21 FLuc: raises the signal of a miR-21 reporter. AID 2288. Potency, µM (titrated, usually from 38.3 µM), inactives show at the highest dose reporter change, positive = more light. 340,000 tested, under 10 active. HeLa miR-21 FLuc reporter, luciferase, 48 h; active = well fitted rising curve with a large enough effect; inconclusive = small, poorly fitted or top-dose-only effect; inactive = no such curve, though single readings can be large or run the other way;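 also: % of control where 0% means no effect; miR-21 action dims this reporter so a rising signal means less miR-21 action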
#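 Using DMEM plus 10% FBS, HeLa miR-21-FLuc cells are incubated with test compounds (final up to about 40uM) for 48 hours; firefly luciferase signal is then imaged following reagent-mediated lysis.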
# GLA inh pH 4.5: blocks human alpha-galactosidase A at pH 4.5 | AID 1467 | purified enzyme, 4-MU-alpha-Gal fluorescence, pH 4.5 | 230,000 tested, under 10 active | activity change, negative = inhibition, % at 105 µM; inconclusive = small, poorly fitted or top-dose-only inhibition, or a rising curve; inactive = flat fitted curve, though single readings scatter; no compound was filed as active;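 also: 0% = full activity with enzyme and -100% = basal without enzyme; dose as in the result columns while the protocol names 77 µM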
# Target sequence (P06280 whole entry, looked up): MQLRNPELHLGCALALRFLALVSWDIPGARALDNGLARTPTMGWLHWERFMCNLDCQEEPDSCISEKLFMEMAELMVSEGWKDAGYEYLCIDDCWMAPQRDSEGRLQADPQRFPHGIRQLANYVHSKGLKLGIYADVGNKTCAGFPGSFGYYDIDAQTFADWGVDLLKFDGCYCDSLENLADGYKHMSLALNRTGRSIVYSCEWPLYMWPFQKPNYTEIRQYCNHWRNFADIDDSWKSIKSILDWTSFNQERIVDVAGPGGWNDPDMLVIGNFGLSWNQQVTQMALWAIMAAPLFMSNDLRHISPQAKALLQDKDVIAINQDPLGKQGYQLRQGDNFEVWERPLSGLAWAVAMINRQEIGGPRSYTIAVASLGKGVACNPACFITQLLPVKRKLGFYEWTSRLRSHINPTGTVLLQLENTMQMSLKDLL
# Numbers without * were called inactive; u = inconclusive; x = not tested or not shown.
SMILES,Rango release inh,Rango-impB inh,miR-21 FLuc,GLA inh pH 4.5
Cc1cc(C)n(-c2nc3ccccc3n3nnnc23)n1,-15%,1.0%,-9%,-7
O=C(NCc1cccc(C(F)(F)F)c1)C1CC(c2ccc(C(F)(F)F)cc2)=NO1 (stereo not given),-3%,-1.9%,-3%,-5
COc1cc(/C=C/C(=O)O)cc2c1OCCO2,4%,-0.1%,-2%,1
CCN(CC)c1ccc(S(=O)(=O)N2CCOCC2)cc1NC(=O)CSC(=S)N1CCCC1,u,-1.1%,3%,x
Cc1nonc1NC(=O)CSc1nnc(-c2ccoc2C)n1-c1cccc(Cl)c1,5%,3.2%,-4%,-5
O=C(CSc1nc2ccccc2n1CCc1ccccc1)NC1CC1,10%,-1.8%,-4%,-5
O=C(NN1C(=O)c2ccccc2NC1c1ccc([N+](=O)[O-])o1)c1ccccc1 (stereo not given),-11%,-4.1%,6%,1
CCOc1ccccc1NC(=O)Cn1c(=O)n(CCC(=O)NC2CCCC2)c(=O)c2ccccc21,x,x,-14%,7
Cc1ccc(S(=O)(=O)NC(CCc2ccccc2)CC(=O)C(C)(C)C)cc1 (stereo not given),25%,-5.7%,1%,-10
C[C@H](CO)N1C[C@H](C)[C@@H](CN(C)S(=O)(=O)c2ccccc2)Oc2ccc(NC(=O)CCN3CCOCC3)cc2C1=O,18%,0.6%,x,x
COc1ccc(NC2CCCN(C(=O)CCN3Cc4ccccc4C3=O)C2)cc1 (stereo not given),1%,0.0%,-7%,x
Cc1ccccc1C(=O)OC1OC(=O)C(Cl)=C1Nc1ccc(C(=O)O)cc1 (stereo not given),-4%,0.7%,-2%,4
Cc1cc(C)n2nc(SCC(=O)NC(=O)c3ccccc3)nc2n1,-19%,u,x,x
O=C(c1ccco1)N(CCCN1CCOCC1)c1nc(-c2ccc(Cl)cc2)cs1,-10%,3.5%,28%,-6
COC(=O)c1ccnc(SCC(=O)c2ccccc2)c1,-17%,-1.2%,-59%,-6
C=CCSc1nc(N)c(C#N)c(-c2ccccc2)c1C#N,-13%,-0.3%,-43%,0
COc1ccc(-c2nnn(Cc3nc(N)nc(N4CCCCC4)n3)n2)cc1,-5%,8.0%,7%,-25
Cc1ccc(NC(=O)CN(c2ccc3c(c2)OCO3)S(=O)(=O)c2c(C)n[nH]c2C)cc1,15%,-2.7%,0%,-11
O=C(C1=C[C@H](c2ccc(Br)cc2)C[C@H](OCc2ccc(CO)cc2)O1)N1CCN(Cc2ccc3c(c2)OCO3)CC1,18%,-0.6%,24%,-3
C#CCN(C(=O)c1cc(COc2ccc(C)c(C)c2)on1)C1CCCCC1,2%,-1.5%,-1%,x
O=C(CN1CCOCC1)Nc1cccc(S(=O)(=O)N2CCCCCC2)c1,24%,0.6%,-1%,-6
COc1ccccc1N1CCN(C(=O)C(=O)c2c(C)n(C)c3ccccc23)CC1,28%,6.1%,6%,x
FC(F)Oc1ccc(NC(=S)NC2CCSc3ccccc32)cc1 (stereo not given),11%,2.7%,-5%,x
Cn1c(=O)c2[nH]c(Nc3ccccc3)nc2n(C)c1=O,-2%,2.8%,15%,2
CCc1nc(SCC(=O)N2c3ccccc3Sc3ccccc32)c2ccccc2n1,40%,10%,1%,4
COc1ccc(-c2ccc([C@H]3[C@H]4C=CC[C@@H](C)[C@@H]4C(=O)N3Cc3ccccc3)c(F)c2)cc1OC,-3%,-2.2%,15%,0
O=C(O)Cc1ccc2c(c1)N(S(=O)(=O)c1cccs1)CC(C(=O)O)O2 (stereo not given),8%,5.2%,-1%,x
O=C(N=C1SC2CS(=O)(=O)CC2N1c1cc(Cl)ccc1Cl)C1CCCO1 (stereo not given),-11%,-0.6%,2%,x
COc1ccc(C(=O)N2CCCC(CCC(=O)NCc3ccc(F)c(F)c3)C2)cc1F (stereo not given),-15%,u,-19%,4
Cc1cc(NC(=O)CSCC(=O)N(C)Cc2c(F)cccc2Cl)no1,1%,-1.7%,x,x
CCN(CC)S(=O)(=O)c1cccc(NC(=O)COC(=O)C2=COCCO2)c1,0%,-1.4%,x,x
O=C1/C(=C/c2cccs2)SC(=S)N1C1CCS(=O)(=O)C1 (stereo not given),0%,0.1%,14%,-16
O=C1CCCCC1C(O)c1ccc(Cl)cc1 (stereo not given),x,x,-5%,6
NC(=O)CN1N=C(c2cc(Cl)sc2Cl)CSC1=O,28%,-3.7%,8%,-8
O=C(Cc1ccccc1)Nc1nc2ccccc2s1,4%,u,-55%,-5
CCn1c2ccccc2c2nnc(SCC(=O)Nc3c(C)n(C)n(-c4ccccc4)c3=O)nc21,5%,1.7%,-11%,-6
O=C(CSC1CN(C(c2ccccc2)c2ccccc2)C1)N/N=C/c1ccc(Cl)cc1Cl,-15%,-6.0%,-5%,-4
O=C(O)CCc1ccc(S(=O)(=O)Nc2ccc(OCc3ccccc3)cc2)cc1,-11%,0.5%,-19%,x
Cc1c(/C=N/NC(=O)CNc2ccccc2)c2ccccn2c1C(=O)c1ccccc1,0%,u,1%,-19
CCN1CCN(C(=O)CNC(=O)c2nn(-c3ccc(OC)cc3)c(=O)c3ccccc23)CC1,-14%,-4.2%,-5%,x
CN(CC1CCCN(CCc2ccc(Cl)cc2)C1)C(=O)c1ccoc1 (stereo not given),-9%,-2.4%,-3%,x
COc1ccc(-c2noc(CSc3ccccc3)n2)cc1OC,-6%,-1.0%,-68%,7
COc1cc(C=CC(=O)OCC=Cc2ccc3c(c2)OCO3)cc(OC)c1OC,-15%,1.9%,x,x
CN(C)CCCNC(=O)C[C@H]1C[C@H](C(=O)N2CCCCC2)[C@@]2(CCc3ccccc3)c3[nH]c4cc(CCC(=O)N(C)C)ccc4c3CCN2C1=O,11%,0.7%,x,x
CCC(C)NCC(=O)Nc1ccc(-c2nc3cc(NC(=O)CNC(C)CC)ccc3o2)cc1 (stereo not given),-17%,-3.2%,0%,4

# By substructure: those above containing fluorine
SMILES,Rango release inh,Rango-impB inh,miR-21 FLuc,GLA inh pH 4.5
O=C(NCc1cccc(C(F)(F)F)c1)C1CC(c2ccc(C(F)(F)F)cc2)=NO1 (stereo not given),-3%,-1.9%,-3%,-5
FC(F)Oc1ccc(NC(=S)NC2CCSc3ccccc32)cc1 (stereo not given),11%,2.7%,-5%,x
COc1ccc(-c2ccc([C@H]3[C@H]4C=CC[C@@H](C)[C@@H]4C(=O)N3Cc3ccccc3)c(F)c2)cc1OC,-3%,-2.2%,15%,0
COc1ccc(C(=O)N2CCCC(CCC(=O)NCc3ccc(F)c(F)c3)C2)cc1F (stereo not given),-15%,u,-19%,4
Cc1cc(NC(=O)CSCC(=O)N(C)Cc2c(F)cccc2Cl)no1,1%,-1.7%,x,x

# 3 compounds already listed, sorted by their value in GLA inh pH 4.5, ascending:
SMILES,Rango release inh,Rango-impB inh,miR-21 FLuc,GLA inh pH 4.5
Cc1c(/C=N/NC(=O)CNc2ccccc2)c2ccccn2c1C(=O)c1ccccc1,0%,u,1%,-19
CCC(C)NCC(=O)Nc1ccc(-c2nc3cc(NC(=O)CNC(C)CC)ccc3o2)cc1 (stereo not given),-17%,-3.2%,0%,4
O=C1CCCCC1C(O)c1ccc(Cl)cc1 (stereo not given),x,x,-5%,6

# (next part)
SMILES,Rango release inh,Rango-impB inh,miR-21 FLuc,GLA inh pH 4.5
N#CCCN(NC1=NS(=O)(=O)c2ccccc21)C(=O)c1ccccc1Br,u,-2.8%,-2%,x
CCn1c(/C=C/c2c[nH]c3ccccc23)nc2ccccc2c1=O,-29%,u,-62%,1
O=C1CC(SC(=Nc2ccccc2)Nc2ccccc2)C(=O)N1c1cccc2ccccc12 (stereo not given),14%,u,3%,9
COc1ccc(C(=O)C2CCCN(Cc3ccc4nonc4c3)C2)c(C)c1 (stereo not given),1%,-4.8%,-1%,-9
Cc1cc(C)c2c(c1)c(C)cc1nnc(SCC(=O)NCc3ccco3)n12,9%,-6.1%,-11%,-8
Cc1cccn2c(=O)nc(SCC(=O)NC3CCCC3)nc12,-23%,-1.6%,x,x
Cc1ccc(S(=O)(=O)NCC2(c3ccccc3)CCOCC2)cc1,14%,-2.3%,3%,-4
CCCCSC1=C(C#N)C(c2ccccc2C)C(C(=O)OCC)C(=O)N1 (stereo not given),1%,0.0%,11%,-9
CCOC(=O)CNC(=O)CSc1nnc(-c2ccco2)n1Cc1ccco1,1%,0.8%,1%,-8
CC1CC(C)CN(Cc2nc3c(c(=O)n(C)c(=O)n3C)n2CCN2CCOCC2)C1 (stereo not given),6%,4.0%,-3%,-10
CCOC(=O)c1c(NC(=O)CN2C(=O)N(C)C3(CCCCC3)C2=O)sc(C(=O)N(C)C)c1C,15%,0.2%,x,x
C/C(=N\NC(=O)c1cc(-c2cccc([N+](=O)[O-])c2)n[nH]1)c1ccc(F)cc1,0%,5.7%,-6%,8
CC(C)CSc1ncc(-c2cccc(C(F)(F)F)c2)cn1,-17%,0.7%,0%,3
COc1ccc(C(=O)N2CCN(c3cccc(Cl)c3)CC2)c(OC)c1,-8%,-1.1%,22%,5
O=C(N/N=C/c1c[nH]c2ccc(Br)cc12)c1ccn(Cc2ccc(Cl)cc2Cl)n1,-2%,-0.1%,5%,0
COc1ccc(Cc2nc(C(=O)NCc3ccccc3OC)cs2)cc1,4%,8.4%,-25%,3
Cc1cccc(/C(N)=N/OC(=O)Cc2cccc3ccccc23)c1,-11%,1.7%,-24%,-6
COc1ccc(CNC(=O)CN2C(=O)COc3ccc(S(=O)(=O)N4CCCC4)cc32)cc1,16%,-2.9%,0%,x
COc1ccc(CN2CCC(N(CCc3ccccc3)Cc3ccccc3)CC2)c(OC)c1,-5%,5.3%,u,-9
O=C(O)C1CSC(CCc2ccccc2)N1 (stereo not given),11%,-1.0%,-2%,0
CCC(C(=O)Nc1ccc(N2CCOCC2)c(S(=O)(=O)Nc2ccccc2OC)c1)c1ccccc1 (stereo not given),-3%,-1.1%,x,x
Cc1cc(C)c(C(=O)CSc2n[nH]c(=O)n2C2CC2)cc1C,15%,-1.2%,16%,-9
OC(c1ccc(F)cc1)(C1CCCCC1)C(CN1CCOCC1)c1ccccc1 (stereo not given),0%,4.2%,2%,x
O=C(NCCc1ccc(C(F)(F)F)cc1)C1CCC(=O)N(C2CC2)C1 (stereo not given),2%,0.7%,0%,x
Cc1cc(Nc2ccccc2)nn1C(=O)c1ccc(Br)cc1,-5%,-1.2%,-11%,7
Clc1ccc(-c2nnc(-c3ccco3)nc2N2CCCCC2)cc1,8%,-1.4%,-7%,-9
COCCn1nnnc1C(c1ccc(OC)c(OC)c1)N1CCN(c2nc3ccccc3s2)CC1 (stereo not given),-6%,-1.8%,0%,-13
O=C(N/N=C/c1cccc(Oc2ccccc2)c1)c1cccc(Br)c1,0%,0.3%,-8%,-2
COC(=O)c1ccc(-n2nnnc2SCC(=O)Nc2ccccc2OC)cc1,-8%,2.4%,-2%,2
CCc1ccccc1NC(=O)N1CCc2ccccc21,-5%,-2.5%,-16%,-1
Cc1nn(-c2ccc(F)cc2)c2nc(N)c(C#N)c(-c3cccs3)c12,1%,-3.7%,0%,5
O=S(=O)(c1ccccc1)N1CCNc2ccccc21,6%,-0.1%,x,x
O=C(NCc1ccccn1)C(=O)NCc1ccccn1,-11%,-1.1%,-9%,-7
Cc1ccc2[nH]c(=O)c(NC(N)=S)nc2c1,26%,1.9%,-1%,-2
CCCCN1CC[C@H]2C=CC[C@@H](C(=O)N3CCOCC3)[C@H]2C1=O,-16%,-0.6%,x,x
O=C(Cc1cccs1)Nc1nnc(Cc2ccccc2)s1,-23%,u,-21%,1
O=C(O)CN1C(=O)CC(Cc2ccccc2)C1=O (stereo not given),26%,-0.4%,-3%,9
COc1ccc(C(=O)NC2CCCCC2)cc1OC1CCN(C(C)C)CC1,1%,-4.3%,-7%,x
COc1ccc(C2=Nn3c(nnc3-c3ccccc3)SC2)cc1OC,-4%,3.3%,-17%,2
CCNc1nc2c(c(=O)n(C)c(=O)n2C)n1CCCc1ccccc1,9%,-1.3%,24%,x
CC(C)CC[n+]1ccn(-c2nc3ccccc3nc2[N-]S(=O)(=O)c2ccccc2)c1,-27%,u,-3%,9
COC(=O)c1ccccc1NC(=O)c1ccc(NS(C)(=O)=O)cc1,0%,-1.4%,-11%,-8
Cc1cc(Cl)ccc1NC(=S)Nc1cccnc1,-12%,1.5%,-4%,-1

# The list is partial; the hit share may differ from the screen's.
